# Calb biofilm kill: mixtures killing C. albicans biofilm; hit rate 0.02% among 120,000; AID 1242; inhibition, % at 7.6 µM; C. albicans biofilm persisters + clotrimazole, fluorescence viability; primary screen in compound mixtures of four per well;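 active = inhibition above 30.3% in the primary screen of four-compound pools, then above 30% when the compound was retested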;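 also: compounds exposed to preformed 24 h biofilms for 48 h; the number belongs to the whole pool; some results filed as inactive read as strong as hits; inactives centre near 12; 0% = biofilm with clotrimazole alone and 100% = kill control; retested singly at about 60 µM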
#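 Probe or stimulus – Clotrimazole 50 µg/mL co-treatment · System – C. albicans biofilms · Schedule – 24 h biofilm formation, then 48 h compound exposure, 37 °C · Evaluation – percent inhibition of biofilm viability · Technique – 2-h Alamar Blue fluorescence, 535/590 nm excitation/emission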
# Numbers without * were called inactive. Some of the compounds tested; rates above refer to the full screens.
compound,Calb biofilm kill
CCOC(=O)c1cc(-c2ccccc2)n(CC(=O)Nc2cc(OC)cc(OC)c2)c1C,9.5
CN(C)CCCN(C(=O)CCc1ccccc1)c1nc2ccc(Cl)cc2s1,18.0
CN1COc2ccc3ccccc3c2C1,2.5
CC(=O)Nc1ccc(S(=O)(=O)Nc2cc([N+](=O)[O-])ccc2C)cc1,27.0
CC(NC(=O)c1ccco1)c1cccc2ccccc12 (centres undefined),9.6
Cc1ccsc1C(=O)NNC(=O)C1CC=CCC1C(=O)O (centres undefined),5.1
CCOC(=O)C1=C(C)NC(C)=C(C(=O)OCC)C1C(=O)OCC(N)=O,8.2
COc1ccc2c(c1)[nH]c1c(N3CCSCC3)ncnc12,9.7
Cc1c(Br)c(C(=O)NNC(=O)c2ccc(C(C)(C)C)cc2)nn1C,-6.9
COC(=O)CNC(=O)C(Cc1ccccc1)NS(=O)(=O)c1ccc2c(c1)c(=O)n(C)c(=O)n2C (centres undefined),23.1
O=C(COC(=O)c1ccc(Cl)nc1)Nc1cc(S(=O)(=O)N2CCCCC2)ccc1Cl,8.6
CC1(C)CC(=O)C(Br)=C(O)C1,33.7
COC(=O)[C@@H]1C[C@@]2(O)[C@H](O)[C@H](O)[C@H](O)C[C@H]2N1CC(c1ccccc1)c1ccccc1,8.3
CCOC(=O)C(=NC(C)CC)NNc1cccc(C(F)(F)F)c1 (centres undefined),6.5
O=C(COC(=O)/C=C/c1ccccc1Cl)NCCc1ccc(Cl)cc1Cl,4.1
O=C1Nc2ccccc2/C1=C/c1cccnc1,14.1
CCCCC(O)(CCCC)C(=O)NNc1ccccc1,14.5
CCN=c1scc(-c2ccc(F)cc2)n1/N=C/c1ccccn1,4.8
O=C(Nc1ccc(NC(=O)c2ccncc2)cc1)c1ccncc1,12.7
CN1CCN(C(=O)C2=C[C@@H](C3CC3)C[C@@H](OCc3ccc(CO)cc3)O2)CC1,14.3
CCOc1cc(/C=C/C(=O)c2ccc(O)cc2)ccc1OCC(=O)N(C)C,5.4
O=C1CC(c2ccccc2)Sc2nc(-c3ccccc3)c(-c3ccccc3)n21 (centres undefined),9.1
CC(NS(=O)(=O)/C=C/c1ccccc1)c1ccccc1 (centres undefined),8.8
CCOC(=O)CC(=O)CSc1nc2c(sc(=S)n2-c2ccc(OCC)cc2)c(=O)[nH]1,-7.1
NC(=O)C1CCN(c2cc(Cl)ccc2[N+](=O)[O-])CC1,-0.1
CCCCCC1CC(CC(=O)NC(=S)Nc2ccc([N+](=O)[O-])cc2)C(=O)O1 (centres undefined),4.0
CC1=NN(c2ccccc2)C(=O)/C1=C/c1cc(C)n(C2CC2)c1C,20.5
COC(=O)c1c(NC(=O)COC(=O)CCS(=O)(=O)c2ccc(C)cc2)sc(C)c1C,14.0
C=CCNC(=O)COC(=O)CNC(=O)c1cc(Cl)cc([N+](=O)[O-])c1,1.7
COc1ccc(Cc2noc(CN3CCCN(C4Cc5ccccc5C4)CC3)n2)cc1OC,13.9
O=C(CCl)N1N=C(c2cccs2)CC1c1ccco1 (centres undefined),11.5
O=C(Nc1ccccc1)C1CCN(C(=O)c2ccc([N+](=O)[O-])cc2)CC1,-2.2
CN(C)S(=O)(=O)c1ccc(NC(=O)COC(=O)C2CC3CCCC(C2)C3=O)cc1 (centres undefined),10.2
CCOC(=O)C(=O)Nc1ccc(OCc2ccccc2)cc1,12.1
O=C(CSc1nncs1)N1CCN(S(=O)(=O)c2ccccc2)CC1,13.5
Cc1ccc(S(=O)(=O)Nc2cccc(CP(=O)(c3ccccc3)c3ccccc3)c2)cc1,24.1
O=S(=O)(c1ccc2ncn(O)c2c1)N1CCOCC1,10.6
NC(=O)C1CCN(C(=O)CCSc2ccccc2)CC1,9.7
O=C(OCCNc1nc(-c2ccccc2)nc2ccccc12)c1cccnc1,18.6
Cc1[nH]c2ccccc2c1C(C#N)(C#N)C1C(=O)c2ccccc2C1=O,14.8
CC(C)CCNC(=O)C1CCC(CNc2c(N3CCCC3)c(=O)c2=O)CC1 (centres undefined),21.4
O=C(COc1ccccc1[N+](=O)[O-])Nc1ccc(N2CCN(C(=O)c3cccs3)CC2)cc1,15.2
Cc1nc(NC(=O)c2ccc(Cl)cc2)sc1Cc1ccc2c(c1)OCO2,4.7
Nc1cc(=O)[nH]c(SCC(=O)Nc2cccc(Cl)c2Cl)n1,19.0
CCOc1ccc(OCCCC(=O)Nc2nc3ccccc3[nH]2)cc1,10.2
CCC(=O)Nc1ccc(/C(C)=N/NC(=O)c2c(Br)c(C)nn2C)cc1,16.0
O=C(COC(=O)CNC(=O)c1ccccc1Cl)Nc1ncc(C(F)(F)F)cc1Cl,9.6
CC(=O)NC1C(Oc2ccccc2C)OC2COC(c3ccco3)OC2C1O (centres undefined),7.2
O=C(O)C1CCC(CNCc2ccccc2Cl)CC1 (centres undefined),16.0
Cc1nn(-c2ccccc2)nc1C(=O)NN,22.4
COC(=O)/C(C#N)=C/c1ccc(N2CCOCC2)c([N+](=O)[O-])c1,12.3
Cn1cc(CN2CCCC(C(=O)c3nccn3C)C2)c(-c2cccc(Cl)c2)n1 (centres undefined),14.2
Cc1ccccc1OCC(=O)OCC(=O)Nc1ccc(N2CCOCC2)cc1,10.1
COc1cc(C2C3=C(CC(C)(C)CC3=O)OC3=C2C(=O)CC(C)(C)C3)cc([N+](=O)[O-])c1O,20.1
Cc1ccc(Nc2ncccc2C(N)=O)cc1[N+](=O)[O-],10.4
CC(C)NC(=S)N/N=C/c1sc(N2CCCCC2)nc1-c1cccs1,2.1
COc1ccc(C2(CNC(=O)c3ccccc3[N+](=O)[O-])CCOCC2)cc1,19.7
Cc1nnnn1-c1ccc(CC(=O)O)cc1,-1.6
O=C(NCc1ccco1)/C(=C/c1ccc(C(F)(F)F)cc1)c1nc2ccccc2[nH]1,2.9
CCC/C(=N\NC(=O)c1cccc(C)c1)c1ccccc1,8.1

# Reprinted at random: five records from the list
compound,Calb biofilm kill
CCC/C(=N\NC(=O)c1cccc(C)c1)c1ccccc1,8.1
CCC(=O)Nc1ccc(/C(C)=N/NC(=O)c2c(Br)c(C)nn2C)cc1,16.0
Cc1ccc(Nc2ncccc2C(N)=O)cc1[N+](=O)[O-],10.4
O=C(NCc1ccco1)/C(=C/c1ccc(C(F)(F)F)cc1)c1nc2ccccc2[nH]1,2.9
O=C(COC(=O)CNC(=O)c1ccccc1Cl)Nc1ncc(C(F)(F)F)cc1Cl,9.6

# Returning to the listing; the 4 compounds before the break are reprinted first.
SMILES	Calb biofilm kill
COc1ccc(C2(CNC(=O)c3ccccc3[N+](=O)[O-])CCOCC2)cc1	19.7
Cc1nnnn1-c1ccc(CC(=O)O)cc1	-1.6
O=C(NCc1ccco1)/C(=C/c1ccc(C(F)(F)F)cc1)c1nc2ccccc2[nH]1	2.9
CCC/C(=N\NC(=O)c1cccc(C)c1)c1ccccc1	8.1
Cc1ccc(N2C(=O)CC(N3CCSCC3)C2=O)c(C)c1 (centres undefined)	12.5
Cc1ccc2nc(C)cc(C(=O)Nc3nccs3)c2c1	10.1
N#Cc1ccc(-c2csc(NC(=O)c3ccc(N4C(=O)CCC4=O)cc3)n2)cc1	9.1
O=C(NCCCn1ccnc1)C(=O)c1cn(CC(=O)N2CCCCCC2)c2ccccc12	19.8
CC1CN(C(=S)NC(=O)c2ccco2)CC(C)O1 (centres undefined)	4.6
O=C(Nc1ccccc1OC(F)F)c1cc2c(s1)CCC2	10.3
O=C(Cn1cnc2ccccc21)N1CCc2ccccc21	20.6
CCN(CC)CCCN1C(=O)C(O)=C(C(=O)c2ccc(C)o2)C1c1ccc(C)o1 (centres undefined)	7.7
COC(=O)c1ccccc1NC(=O)Cc1nc(-c2ccccc2)sc1-c1ccc(C)cc1	11.1
Oc1c(Cl)cc(Cl)cc1/C=N/Nc1ncc(Br)cn1	16.7
COc1ccc(C(=O)NC2=Nc3ccccc3N=C(C)C2c2ccccc2)cc1 (centres undefined)	-17.6
CC(=O)Nc1cc(C(=O)NCc2ccco2)ccc1Sc1ccc(Cl)cc1	5.3
CC(C(=O)Nc1ccc(C#N)cc1)N(C)CC(=O)Nc1ccccc1Br (centres undefined)	18.3
CN(C)S(=O)(=O)c1ccc(C(=O)Oc2coc(CSc3ncccn3)cc2=O)cc1	13.1
CN(CCc1cn[nH]c1)C(=O)CC1C(=O)NCCN1Cc1ccccc1C(F)(F)F (centres undefined)	6.7
Cc1cccc(NC2SC(=O)NC2=O)c1 (centres undefined)	11.8
COC(=O)c1[nH]c2cc(C)ccc2c1NC(=O)CN1CCOCC1	21.8
Nc1nc(SCc2ccc(Cl)cc2Cl)ns1	14.5
CCOC(=O)c1cc(=O)c2ccc(OCC(=O)Nc3ccccc3)cc2o1	5.7
COc1ccc(N/N=C(C)/C(=N/O)C(=O)Nc2ccccc2)cc1	17.1
Clc1ccccc1OCCN1CCC(Cc2ccccc2)CC1	23.1
COCCSc1ccccc1C(=O)Nc1ccccc1C#N	11.9
NCCCNc1ccc([N+](=O)[O-])cc1C(F)(F)F	25.3
CCOCC(=O)Nc1ccc(Br)c(C)c1	22.4
Cc1cccc(C(=O)NNC(=O)CCn2nnc3ccccc32)c1	18.2
COc1ccc(CCNC(=O)Cn2nnc3ccccc3c2=O)cc1	7.2
O=C(NCCN1C(=O)S/C(=C\c2cccnc2)C1=O)C1CC(=O)N(Cc2ccco2)C1 (centres undefined)	25.0
CCOC(=O)N1CCN(c2ccc(C(C)=O)cc2F)CC1C (centres undefined)	11.0
COc1cccc(-n2cnc(=O)c3cccnc32)c1	1.3
COCCNC(=O)Cc1ccc(F)cc1	12.6
O=C(COC(=O)c1cccc(Br)c1)NCCc1ccccc1	10.2
O=C(/C=C/c1ccc2c(c1)OCO2)Nc1cccnc1	6.5
N#CC1=C(N)NC(SCC(=O)c2ccccc2)=C(C#N)C12CCCC2	19.0
Cc1ccc(-n2c(CSc3nc(C)cc(C)n3)n[nH]c2=S)cc1	26.1
Cc1ccc(C(=O)Nc2ccc(Br)cc2)cc1S(=O)(=O)Nc1ccccn1	13.2
CCCCCc1cc(=O)oc2c(C(CCN3CCCC(C)C3)c3cc(OC)c(OC)c(OC)c3)c(OC)cc(OC)c12 (centres undefined)	10.2
CC1=C(C(=O)OCc2ccccc2)C(c2ccc(C(C)(C)C)cc2)NC(=O)N1CCCCCC(=O)O (centres undefined)	-1.0
O=C(Nc1ccccn1)c1cc2cc([N+](=O)[O-])ccc2s1	8.8
COc1cc(O)c(C(CC(=O)N2CCCCC2)c2cc(OC)c(OC)c(OC)c2)c(OC)c1 (centres undefined)	13.2
C[C@]12CC[C@@H]3c4ccc(O)cc4[C@@H](O)C[C@H]3[C@@H]1CC[C@@H]2O	15.2
Cc1ccc(-n2c(=O)[nH]c3c(oc4ccccc43)c2=O)cc1	19.2
O=C(NCc1ccccc1)C1=C[C@H](c2coc3ccccc3c2=O)C[C@H](OCCCCO)O1	18.9
CCN(CC)S(=O)(=O)c1ccc(C)c(NC(=O)COC(=O)C=C(C)C)c1	13.4
O=C1/C(=C\c2ccc3ccccc3c2)CCCc2ccccc21	18.1
Nc1cc(S(=O)(=O)Nc2cc(Cl)ccc2Cl)ccc1N1CCCC1	-12.3
O=C(CSc1nnc(COc2ccccc2)o1)N1CCOCC1	2.6
COc1ccc(/C=C/C(=O)OCC(=O)Nc2cccc(Oc3ccccc3)c2)c(OC)c1	15.8
O=C(Nc1ccc(Oc2c(F)c(F)c(F)c(F)c2F)cc1)OC1CCN2Cc3ccccc3N=C12 (centres undefined)	6.0
CC(=O)C1=C(c2ccccc2)NC(=S)NC1c1cc(Cl)c(OC(C)C)c(Cl)c1 (centres undefined)	17.8
O=c1c2cn[nH]c2nc(SCc2cc(=O)n3cc(Br)ccc3n2)n1-c1ccc(Br)cc1	14.4

# Continuation.
SMILES	Calb biofilm kill
CC(=O)Nc1ccc(OS(=O)(=O)c2ccccc2C)cc1	25.2
CC(=O)c1cccc(NC(=O)COC(=O)COc2c(Cl)cc(Cl)c3ccc(C)nc23)c1	6.8
Cc1c(NC(=O)C(c2ccccc2)c2ccccc2)cccc1C(=O)O	27.1
CN(C)S(=O)(=O)c1cccc(NC(=O)CCSc2ccc(Cl)cc2)c1	18.7
CC(C)CNC(=O)CC(NCC(C)C)C(=O)O (centres undefined)	12.8
O=C(NCC1CCCO1)c1sc2ccccc2c1Cl (centres undefined)	14.2
Nc1c(C(=O)c2ccc(Cl)cc2)sc2c1c(=O)[nH]c(=O)n2-c1ccccc1	10.7
O=C(Nc1ccc(N2CCOCC2)cc1)C1CC(=O)N(c2ccc(F)cc2)C1 (centres undefined)	8.9
CC(NC(=O)C1CCCCC1)C(c1cccs1)N1CCN(C)CC1 (centres undefined)	16.8
Cc1occc1C(=O)N1CCN(c2ccccc2)CC1	6.7
COc1ccccc1NC(=O)CN1C(=O)C(C)SC(C)C1=O (centres undefined)	3.6
CCOC(=O)C(C(=O)OCC)N(C#N)c1nc(N(C)C)nc(N(C)C)n1	18.8
Oc1ccc(Br)cc1C=Nc1ccc2c3c(cccc13)CC2	14.9
Cc1ccc(-c2nc3ccccc3c(=O)n2-c2c(C)n(C)n(-c3ccccc3)c2=O)cc1	12.1
COc1ccccc1OCCC(=O)Nc1cccc(S(=O)(=O)N2CCCCC2)c1	20.2
O=C(CN(Cc1ccccc1)S(=O)(=O)c1cccc(C(F)(F)F)c1)NC1CCCCC1	3.0
O=C(C1CCCN(S(=O)(=O)c2cccc3nsnc23)C1)N1CCCCCC1 (centres undefined)	8.0
CCOC(=O)c1sc(-c2ccccc2)cc1NC(=O)Nc1ccccc1	8.2
O=C(CC1C(=O)NCCN1Cc1cccc(Oc2ccccc2)c1)NCCc1cscn1 (centres undefined)	10.5
CCC(C(=O)OCCOCCN(CC)CC)c1ccccc1 (centres undefined)	27.7

# Source: PubChem BioAssay (PCMD)
